A1 inhib = A1 inhibition; MEF A1-2A-BIM cells, caspase-Glo luminescence, 3 h; percent of clofoctol signal, DMSO as zero; caspase activation, % (no concentration beside the values); 21,000 compounds, 0.51% hits;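 active = most replicate scores above 10, or exactly half above 10 with mean activity above 10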;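 also: effector caspase 3 and 7 activity cleaving a DEVD luciferin substrate; 50 nL library stock added to about 30 µL; numbers are from one replicate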
BJeLR viab HTS = lowers viability of BJeLR cells. BJeLR fibroblasts viability, CellTiterGlo ATP luminescence, 48 h; HRASV12, hTERT and SV40 LT/ST transformed. viability loss activity score, % (test concentration not listed). 30,000 compounds, 0.64% hits. AID 2275; in the data active = viability loss activity score above about 50%; about a fifth of its hits are not listed in these tables;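 also: higher score means fewer live cells and less ATP luminescence; stock transfer was 50 or 100 nL into about 30 µL; 0% = vehicle wells and 100% = a reference killing control; one replicate is shown; the record names a cut of 85%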
Starred values were filed as active, the others as inactive; . = not tested or not shown.

SMILES	A1 inhib	BJeLR viab HTS
C[C@@H]1CN([C@@H](C)CO)C(=O)c2cc(NC(=O)Nc3cccc4ccccc34)ccc2O[C@H]1CN(C)C(=O)Nc1ccc2c(c1)OCO2	0.2	-5.3
c1ccc(-n2ncc3c(N4CCc5ccccc54)ncnc32)cc1	-1.4	-2.6
C[C@@H]1CN([C@@H](C)CO)C(=O)c2cc(NS(C)(=O)=O)ccc2O[C@@H]1CN(C)Cc1ccc(C(=O)Nc2ccccc2N)cc1	.	5.1
CCC(=O)Oc1c(S(=O)(=O)c2ccccc2)c(C)nn1C(C)(C)C	.	-3.8
C[C@@H]1CN([C@H](C)CO)C(=O)c2cc(NC(=O)Nc3ccc4c(c3)OCO4)ccc2O[C@@H]1CN(C)C(=O)Nc1ccc(F)cc1	0.1	-3.9
COc1cc([C@H]2OC[C@H]3[C@@H]2CO[C@@H]3c2ccc3c(c2)OCO3)cc(OC)c1OC	0.8	-9.4
C[C@H](CO)N1C[C@H](C)[C@@H](CN(C)Cc2ccc(Cl)c(Cl)c2)Oc2c(NC(=O)c3nc4ccccc4s3)cccc2C1=O	.	4.6
O=C(C1CCCN1S(=O)(=O)c1cccc2nsnc12)N1CCCCCC1 (centres undefined)	.	-1.1
C[C@H](CO)N1C[C@H](C)[C@H](CN(C)C(=O)Nc2ccc3c(c2)OCO3)Oc2ccc(NC(=O)C3CCCCC3)cc2C1=O	0.6	-11.7
COc1ccc(S(=O)(=O)Nc2ccc3c(c2)C(=O)N([C@H](C)CO)C[C@H](C)[C@H](CN(C)Cc2ccc(C(=O)Nc4ccccc4N)cc2)O3)cc1	.	10.3
CC(C)N(Cc1ccccc1)S(=O)(=O)c1ccc2ccccc2c1	0.6	21.6
NC(=O)Nc1ccc2[nH]ncc2c1	-0.7	-1.8
O=C(O)CCNc1cc(Cl)ccc1Oc1ccc(Cl)cc1	0.4	-2.2
CC(C)(C)Nc1nc(Cl)nc(N(C#N)CN2C(=O)c3ccccc3S2(=O)=O)n1	-1.5	0.0
C[C@H]1CN([C@@H](C)CO)C(=O)c2cc(NC(=O)C3CCCCC3)ccc2O[C@@H]1CN(C)Cc1ccncc1	0.4	3.1
O=C(NC(c1ccccc1)c1ccccc1)c1ccccc1Cl	0.6	-4.1
O=S(=O)(NCc1cccc2ccccc12)c1ccccc1	1.1	7.6
COc1ccc(NC(=O)C(NC(=O)C2CCCCC2)C(C)C)cc1 (centres undefined)	.	-0.9
CCN(CC)CCNC(=O)c1cc(S(C)(=O)=O)ccc1OC	0.1	-1.0
O=c1[nH]nc(-c2cc(C(F)(F)F)cc(C(F)(F)F)c2)c2ccccc12	0.0	-2.1
CC(C)C1NC(=O)N(c2ccccc2)C1=O (centres undefined)	-0.4	-3.1
C[C@H](CO)N1C[C@H](C)[C@H](CN(C)CC2CC2)Oc2ccc(NS(=O)(=O)c3ccccc3)cc2C1=O	0.2	-1.0
O=c1c(N2CCOCC2)nnc2sc3ccccc3n12	-2.4	-4.0
CC1=NOC(=O)/C1=C/c1ccc(N(C)C)cc1	1.8	11.0

Taken from above.
CCC(=O)Oc1c(S(=O)(=O)c2ccccc2)c(C)nn1C(C)(C)C @ BJeLR viab HTS = -3.8
CC(C)C1NC(=O)N(c2ccccc2)C1=O (centres undefined) @ BJeLR viab HTS = -3.1
O=S(=O)(NCc1cccc2ccccc12)c1ccccc1 @ BJeLR viab HTS = 7.6

More compounds
SMILES	A1 inhib	BJeLR viab HTS
C[C@H](C[C@@H](O)[C@](C)(O)[C@H]1CC[C@@]2(O)C3=CC(=O)[C@@H]4C[C@@H](O)[C@@H](O)C[C@]4(C)C3CC[C@]12C)C(C)(C)O (some centres undefined)	0.2	-2.7
C/C=C(/C)C(=O)O[C@@H]1Cc2c(ccc3ccc(=O)oc23)OC1(C)C	-0.6	-2.3
CCCCC[C@H](O)/C=C/[C@H]1C=CC(=O)[C@@H]1CCCCCCC(=O)O	0.5	4.9
C[C@@H]1CN([C@H](C)CO)C(=O)c2cc(NC(=O)CCN3CCOCC3)ccc2O[C@H]1CN(C)S(=O)(=O)c1ccc(Cl)cc1	0.1	-2.1
CC(C)NC(=O)N(C)C[C@@H]1Oc2ccc(NS(C)(=O)=O)cc2C(=O)N([C@@H](C)CO)C[C@H]1C	0.1	0.3
CCN1CCN(c2cc(C)c3cc(NC(=O)COc4ccc(Cl)cc4)ccc3n2)CC1	.	1.1
C[C@H]1CN([C@@H](C)CO)C(=O)c2cccc(NC(=O)c3cnccn3)c2O[C@H]1CN(C)S(=O)(=O)c1ccccc1	.	0.1
Cc1ccc(S(=O)(=O)N[C@@H](Cc2ccccc2)C(=O)CCl)cc1	15.7*	25.1
C[C@@H]1CN([C@@H](C)CO)C(=O)c2cccc(NC(=O)Nc3ccc(C(F)(F)F)cc3)c2O[C@H]1CN(C)S(=O)(=O)c1ccc(Cl)cc1	.	-2.1
CC(CO)(CO)NS(=O)(=O)c1ccccc1	0.6	1.1
Cc1ccc(C)c(OCCCC(C)(C)C(=O)O)c1	0.6	4.1
N#CC(C#N)=C(NC12CC3CC(CC(C3)C1)C2)C(F)(F)F	-1.8	4.6
COc1cc2c(=O)n(Cc3ccccc3Cl)c(=O)n(CC(=O)N3CC(C)CC(C)C3)c2cc1OC (centres undefined)	.	2.8
COc1cc2c(cc1OC)C(C(=O)NCCN(C)C)C(c1cccs1)N(C)C2=O (centres undefined)	.	5.8
Cc1ccc(NC(=O)CSc2nc(-c3ccc4c(c3)OCO4)cn2-c2cccc(Cl)c2)cc1C	-0.5	-2.9
CNC[C@@H]1Oc2c(NC(=O)Nc3c(C)noc3C)cccc2C(=O)N([C@@H](C)CO)C[C@@H]1C	.	-2.8
COc1ccc(S(=O)(=O)Nc2cccc3c2O[C@H](CN(C)Cc2ccc4c(c2)OCO4)[C@@H](C)CN([C@@H](C)CO)C3=O)cc1	.	-1.5
CCOC(=O)c1sc2nc(N3CCCCC3)c3c(c2c1N)CC(C)(C)OC3	0.0	4.1
Cc1ccc(Cn2c(/N=C/c3ccc(N(C)C)cc3)nc3ccccc32)cc1	.	1.3
CCN(CC)c1ccc(N=c2ccc3ccccc3n2C)cc1	.	4.8
C[C@@H]1CN([C@@H](C)CO)C(=O)c2cc(NC(=O)Cn3cnnn3)ccc2O[C@@H]1CN(C)S(=O)(=O)c1ccc(F)cc1	0.1	2.8
CCN(C(=O)CSc1ncnc2c1sc1ccccc12)c1cccc(C)c1	-1.2	3.4
O=C(Nc1ccc(Br)cc1)C1CC(=O)N(c2ccccc2)C(=Nc2ccccc2)S1 (centres undefined)	0.6	7.4
CC(C)c1ccc(S(=O)(=O)N2CCOCC2)cc1	0.7	-7.3

Not a retest: 5 of the compounds above.
SMILES	A1 inhib	BJeLR viab HTS
COc1cc2c(=O)n(Cc3ccccc3Cl)c(=O)n(CC(=O)N3CC(C)CC(C)C3)c2cc1OC (centres undefined)	.	2.8
COc1cc2c(cc1OC)C(C(=O)NCCN(C)C)C(c1cccs1)N(C)C2=O (centres undefined)	.	5.8
Cc1ccc(NC(=O)CSc2nc(-c3ccc4c(c3)OCO4)cn2-c2cccc(Cl)c2)cc1C	-0.5	-2.9
CNC[C@@H]1Oc2c(NC(=O)Nc3c(C)noc3C)cccc2C(=O)N([C@@H](C)CO)C[C@@H]1C	.	-2.8
COc1ccc(S(=O)(=O)Nc2cccc3c2O[C@H](CN(C)Cc2ccc4c(c2)OCO4)[C@@H](C)CN([C@@H](C)CO)C3=O)cc1	.	-1.5

Further entries.
SMILES	A1 inhib	BJeLR viab HTS
C=CC(C)(C)c1[nH]cnc1/C=C1\NC(=O)C(C(C)C)NC1=O (centres undefined)	-0.1	1.1
CCCCS(=O)CSc1nc(-c2cccs2)cc(-c2ccccc2)c1C#N (centres undefined)	-0.2	-6.3
CCCCCCCC1OC(=O)CCC(O)/C=C\C(O)C1O (centres undefined)	0.8	22.1
O=c1c2ccccc2[nH]c(=S)n1CCc1ccccc1	-0.5	2.0
C[C@@H]1CN([C@H](C)CO)C(=O)c2cc(NC(=O)c3ccncc3)ccc2O[C@@H]1CN(C)S(C)(=O)=O	0.2	-4.9
C[C@H](CO)N1C[C@H](C)[C@@H](CN(C)Cc2ccncc2)Oc2c(NC(=O)C3CCOCC3)cccc2C1=O	.	-3.6
C[C@@H]1O[C@@H](Oc2cc(O)c3c(=O)c(O[C@@H]4O[C@@H](C)[C@H](O)[C@@H](O[C@@H]5OC[C@@H](O)[C@H](O)[C@H]5O)[C@H]4O[C@@H]4O[C@H](CO)[C@@H](O)[C@H](O)[C@H]4O)c(-c4ccc(O)cc4)oc3c2)[C@H](O)[C@H](O)[C@H]1O	0.0	-7.0
CCC1=Nc2cc(C(=O)NCC(OC)OC)ccc2Sc2ccccc21	.	3.8
C[C@H]1CN([C@@H](C)CO)C(=O)c2cc(NS(=O)(=O)c3ccc(Cl)cc3)ccc2O[C@H]1CN(C)C(=O)Nc1ccc(F)cc1	1.5	-1.7
CC1C=CCC2C(=O)N(c3cccc(O)c3)C(=O)C12 (centres undefined)	1.3	-2.0
CC(C)NC(=O)N(C)C[C@@H]1Oc2ccc(NC(=O)CCC(F)(F)F)cc2C(=O)N([C@H](C)CO)C[C@H]1C	-0.3	-1.9
C1=Cc2nonc2C2C=C(c3ccccc3)N=C12 (centres undefined)	-1.6	-4.6

Profiles as entered above:
Record of NC(=O)Nc1ccc2[nH]ncc2c1 = A1 inhib: -0.7; BJeLR viab HTS: -1.8
Record of C[C@@H]1CN([C@@H](C)CO)C(=O)c2cc(NS(C)(=O)=O)ccc2O[C@@H]1CN(C)Cc1ccc(C(=O)Nc2ccccc2N)cc1 = A1 inhib: .; BJeLR viab HTS: 5.1

The list goes on:
SMILES	A1 inhib	BJeLR viab HTS
CC1(C)CC(N=Cc2ccccc2O)CC(C)(C)N1	-0.9	3.2
C[C@H](CO)N1C[C@H](C)[C@H](CN(C)S(=O)(=O)c2cn(C)cn2)Oc2c(NS(=O)(=O)c3ccccc3)cccc2C1=O	.	2.0
CNC[C@H]1Oc2c(NC(=O)c3nc4ccccc4s3)cccc2C(=O)N([C@H](C)CO)C[C@@H]1C	.	40.2
CS(=O)(=O)N(Cc1ccccc1)c1ccccc1C(=O)Nc1cccc(Br)c1	-0.3	4.9
CN1C(=O)/C(=C(/C#N)C(N)=O)c2ccccc21	0.7	2.5
CC(C)n1cnc2cc(NCc3ccc(Br)cc3)ccc21	.	-4.7
CCN1CCN(C(=O)CS(=O)Cc2nc(-c3ccccc3)oc2C)CC1 (centres undefined)	.	4.9
CCC(O)c1ccc2c(=O)c(-c3ccccc3F)coc2c1 (centres undefined)	-5.2	6.5
Cc1noc(C)c1NC(=O)Nc1ccc2c(c1)C(=O)N([C@H](C)CO)C[C@H](C)[C@H](CN(C)Cc1ccc(C(=O)Nc3ccccc3N)cc1)O2	.	0.4
O=C(NCCc1nnc2ccc(N3CCCC3)nn12)c1ccccc1	0.2	1.8
C[C@@H]1CN([C@@H](C)CO)C(=O)c2cc(NC(=O)Nc3ccc4c(c3)OCO4)ccc2O[C@@H]1CN(C)S(=O)(=O)c1cn(C)cn1	-0.6	-0.5
CC(=O)OCc1ccccc1Sc1ccccc1C(=O)NCc1ccccc1	-0.2	1.1
Cc1cccc(C(=O)Nc2ccc3[nH]c(=O)[nH]c3c2)c1	0.0	-3.8
C[C@H]1CN([C@@H](C)CO)C(=O)c2cc(NC(=O)c3ccncc3)ccc2O[C@H]1CN(C)Cc1ccc(C(=O)Nc2ccccc2N)cc1	.	8.1
O=C(CCNS(=O)(=O)c1cccc2nsnc12)N1CCc2ccccc21	.	2.7
CC(=O)Nc1ccc2nc(SCc3c(C)cc(C)cc3C)sc2c1	-0.1	-2.5
COc1ccc(S(=O)(=O)N(C)C[C@@H]2Oc3c(NS(=O)(=O)c4ccc(C)cc4)cccc3C(=O)N([C@H](C)CO)C[C@H]2C)cc1	.	1.3
CC(C)NC(=O)C(C)n1cccc1C(=O)c1ccccc1 (centres undefined)	0.2	-7.8
C=CC/C=C\C/C=C\CCCCCCCc1cccc(O)c1C(=O)O	-0.1	-0.6
O=C(Nc1ccc([N+](=O)[O-])cc1O)Nc1ccccc1Br	-4.6	-3.1
CC(C)N(Cc1nc(-c2ccccc2)no1)C(=O)C1CCCCC1	.	-1.2
Cc1c(C#N)c2nc3c(c(-c4ccccc4)c2n1-c1ccccc1)CCCC3	0.2	-1.4
Cc1ccc(NC(=O)Cn2nnc(S(=O)(=O)c3ccc(C(C)(C)C)cc3)c2N)c(C)c1	.	-3.2
COc1ccc(-c2cc(OC(=O)c3ccccc3)cc3sc(=O)oc23)cc1	0.1	-1.2
C[C@@H]1CN([C@H](C)CO)C(=O)c2cc(N(C)C)ccc2O[C@@H]1CN(C)Cc1ccc2c(c1)OCO2	0.5	-1.0
CNC[C@H]1Oc2c(NC(=O)c3ccncc3)cccc2C(=O)N([C@@H](C)CO)C[C@@H]1C	.	-1.8
COc1ccc(CN(C)C[C@@H]2Oc3c(NC(=O)Nc4ccc(C(F)(F)F)cc4)cccc3C(=O)N([C@H](C)CO)C[C@@H]2C)cc1	.	1.1
COc1ccc(NC(=O)N(C)C[C@@H]2Oc3c(NC(=O)c4ccncc4)cccc3C(=O)N([C@@H](C)CO)C[C@@H]2C)cc1	.	3.0
S=c1[nH]nc(Cc2cccc3ccccc23)o1	0.2	0.8
C[C@@H]1CN([C@@H](C)CO)C(=O)c2cc(N(C)C)ccc2O[C@H]1CN(C)C(=O)Nc1ccc(C(F)(F)F)cc1	-0.9	0.0
O=C(C1c2ccccc2Oc2ccccc21)N1CCCc2ccccc21	-0.2	-3.5
C[C@@H]1CN([C@H](C)CO)C(=O)c2cccc(NC(=O)Nc3ccccc3)c2O[C@H]1CN(C)C(=O)Nc1ccccc1	.	-0.6
Cc1cccc(N(C)C(=O)c2cc3c(=O)oc4ccccc4c3s2)c1	.	-6.6
N=C1S/C(=C/c2ccccc2)C(=O)N1c1nonc1N	-6.4	3.6
Cc1ccc(S(=O)(=O)N(C)C[C@@H]2Oc3c(NS(=O)(=O)c4ccc(Cl)cc4)cccc3C(=O)N([C@H](C)CO)C[C@@H]2C)cc1	.	-2.8

Compound activity as filed in PubChem.

A portion of the library; count on the stated rates, not on these rows.
